# Compound activity from PubChem BioAssay.
# Biofilm kill mix: clotrimazole potentiators killing C. albicans biofilm, primary screen, 4-compound mixtures; C. albicans biofilm persisters + clotrimazole, fluorescence viability; primary screen in compound mixtures of four per well; inhibition, % at 7.6 µM; 120,000 compounds, 0.02% hits;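 active = inhibition above 30.3% in the primary screen of four-compound pools, then above 30% when the compound was retested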;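 note: compounds exposed to preformed 24 h biofilms for 48 h; the number belongs to the whole pool; some results filed as inactive read as strong as hits; inactives centre near 12; 0% = biofilm with clotrimazole alone and 100% = kill control; retested singly at about 60 µM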
#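 Incubation: 24 h biofilm formation, then 48 h compound exposure, 37 °C | Material: C. albicans biofilms | Buffer or medium: RPMI/MOPS medium, pH 7.0 | Measured by: 2-h Alamar Blue fluorescence, 535/590 nm excitation/emission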
# Numbers without * were called inactive.
SMILES,Biofilm kill mix
Cc1c(NS(=O)(=O)c2cccc3nsnc23)c(=O)n(-c2ccccc2)n1C,12.0
O=C(O)CSc1cc(C(=O)c2ccccc2O)cn2c(=O)c3c(-c4ccccc4)csc3nc12,18.2
CC(C)=C1C2CCC1C(C(=O)NCCc1ccccc1)C2C(=O)O (configuration not stated),10.2
CC(C)c1ccc(N(CC(=O)NCCSCc2ccco2)S(C)(=O)=O)cc1,19.0
O=C(Cc1ccccc1)Nc1cc([N+](=O)[O-])ccc1N1CCOCC1,21.7
CCn1c(NC(=O)c2nn(C)cc2Br)nc2ccccc21,20.6
COc1ccc(N2CCC(CNC(=S)Nc3cccc(OC)c3)C2)cc1 (configuration not stated),17.3
CCOC(=O)/C=C1\SCC(=O)N1CC(=O)NC(c1ccccc1)c1ccccc1,16.1
COc1cccc(C2=NN(C(=O)c3ccc(C)o3)C(O)(C(F)(F)F)C2)c1 (configuration not stated),14.7
Cc1nnc(SCc2cc(=O)[nH]c(=S)[nH]2)s1,4.7
COc1ccc(-c2cc(C(=O)OCC(=O)NC(C)(C)C)c3ccccc3n2)cc1,12.3
Cn1c(CC(=O)Nc2ccc(Cl)c(Cl)c2)n[nH]c1=S,11.2
CCOC(=O)c1nnc(-c2ccc(C)cc2)nc1N1CCSCC1,9.7
CC(C)(C)S(=O)(=O)c1cnc(N2CCCC2)nc1N,3.6
O=C(Sc1nnc(-c2ccccc2)o1)N1c2ccccc2Sc2ccccc21,-2.3
COc1ccc(C(=O)c2coc(-c3ccccc3C(=O)O)c2C(=O)O)cc1,7.5
O=c1c2ccccc2nc(SCc2ccccc2)n1CC1CCCO1 (configuration not stated),15.6
COCCCNc1ccc([N+](=O)[O-])cc1C(=O)Nc1cccc(C)n1,-1.1
O=S1(=O)CC2SC(=S)N(c3ccccc3)C2C1 (configuration not stated),2.7
COC(=O)c1cccc(CSc2nc3ccccc3[nH]2)c1,11.9
O=C(CSc1nnc2ccc3ccccc3n12)N1CCOCC1,4.0
Cc1ccc(NC(=O)CCn2nnc3ccccc32)cc1,10.5
COc1ccc(C/C(C)=N/NC(=O)C2COc3ccccc3O2)cc1 (configuration not stated),14.4
COc1ccc(-c2nn(-c3ccccc3)cc2/C=C/C(=O)OCC(=O)Nc2cccc(C#N)c2)cc1,16.1
O=C(O)Cc1sc(-c2cccnc2)nc1-c1ccc(Br)cc1,18.4

# Next part (4 carried over from the part before).
SMILES,Biofilm kill mix
Cc1ccc(NC(=O)CCn2nnc3ccccc32)cc1,10.5
COc1ccc(C/C(C)=N/NC(=O)C2COc3ccccc3O2)cc1 (configuration not stated),14.4
COc1ccc(-c2nn(-c3ccccc3)cc2/C=C/C(=O)OCC(=O)Nc2cccc(C#N)c2)cc1,16.1
O=C(O)Cc1sc(-c2cccnc2)nc1-c1ccc(Br)cc1,18.4
CC(C)[C@H](NC(=O)c1ccccc1)C(=O)OCC(=O)N1CCCCCC1,13.8
CCC(C)NC(=S)N1CCN(C)CC1 (configuration not stated),23.9
Cc1nn(-c2ccccc2)c(N)c1N=Nc1ccccc1,23.1
COc1ccc(/C=C/C(=O)O)cc1S(=O)(=O)N1CCc2ccccc2C1,9.0
CSc1cccc(NC(=S)Nc2cc(C)ccc2C)c1,15.0
O=C(CSc1nccn1-c1ccc(F)cc1)NCc1ccc(F)cc1,-6.6
CCOC(=O)NN1C(=O)c2ccccc2NC1c1cccnc1 (configuration not stated),18.5
O=C(O)/C=C/C(=O)NC1CCS(=O)(=O)C1 (configuration not stated),9.6
Cc1cccc(N(CC(=O)N2CCN(C)CC2)S(=O)(=O)c2ccccc2)c1,21.4
COc1ccc(C2CC(=O)C=C(NCCC(C)C)C2)cc1 (configuration not stated),20.1
COc1cccc2cc(-c3n[nH]c(=S)n3C)oc12,22.2
Cc1c(NC(=O)CSc2nncc3ccccc23)c(=O)n(-c2ccccc2)n1C,17.1
COc1cc(S(=O)(=O)N(Cc2cccs2)C2CC2)ccc1-n1cnnn1,14.2
O=C(NCc1ccco1)Nc1cccc([N+](=O)[O-])c1,13.0
N#Cc1c(NC(=O)c2ccc(N3CCOCC3)c([N+](=O)[O-])c2)sc2c1CCCC2,6.5
Cc1cccc(NC(=O)CCNS(=O)(=O)c2cccc3nonc23)c1C,23.7
CCOc1ccccc1Nc1nnc(SCc2nnc(-c3cc(OC)c(OC)c(OC)c3)o2)s1,7.3
Cc1cc(OCCCCCn2ccnc2)cc(C)c1Cl,12.3
CC(=O)c1sc(NC(=O)COc2ccc(Cl)cc2Cl)nc1C,12.0
Cc1ccc(-n2nc(C(=O)O)cc2-c2ccc(Cl)cc2)cc1,9.0
O=C(CSc1nc2[nH]ncc2c(=O)[nH]1)Nc1ccccc1,8.3
CCCCOc1ccc(Cc2cnc(N)nc2N)cc1,1.5
Cc1ccccc1N1C(=O)CC2(CCCC2)CC1=O,23.5
Cc1cc(=O)oc2cc(OCC(=O)OCC(=O)Nc3ccccc3C(C)C)ccc12,6.8
Nc1cccnc1Sc1ccc([N+](=O)[O-])cn1,16.5
Cc1csc2nc(NC(=O)c3ccccc3)sc(=O)c12,29.0
Cc1c(NC(=O)C(C)OC(=O)COc2ccccc2)c(=O)n(-c2ccccc2)n1C (configuration not stated),6.9
OCCCNc1ncnc2sc(-c3ccccc3)cc12,8.0
CCC1S/C(=N/C(=O)NC2CCCCC2)NC1=O (configuration not stated),16.2
O=Cc1cc2ccccc2nc1SCCCF,2.8
Cc1cc2cc(C)c(SCC(=O)NCc3ccco3)nc2cc1C,14.1
CCCNC(=O)COc1ccc2c(=O)c(Oc3ccccc3F)coc2c1,6.8
Cc1ccc(S(=O)(=O)c2cc3c(=O)n4ccccc4nc3n(CC3CCCO3)c2=N)cc1C (configuration not stated),9.7
O=C(O)C1C2CCC(O2)C1C(=O)NCc1ccc(Cl)cc1 (configuration not stated),8.0
COc1ccc(CN2CCCC(C(=O)c3cccc(OC(C)C)c3)C2)cc1Cn1cccn1 (configuration not stated),28.1
CSCC[C@H](NC(=O)c1cccc([N+](=O)[O-])c1C)c1nc2ccccc2[nH]1,8.1
COc1cc(C(=O)Nc2cccc(-c3cn4cccnc4n3)c2)cc(OC)c1OC,14.8
CN1C(=O)/C(=C2\SC(=S)N(CCCCCC(=O)O)C2=O)c2ccccc21,10.8
CCOC(=O)c1cc(C(C)(C)C)n(CCCN2CCOCC2)c1C,14.2
N#CCC(=O)N/N=C/c1ccc(Cl)cc1,27.2
COc1ccccc1CCNS(=O)(=O)c1ccc(C(=O)O)n1C,21.6
O=C(NC(=O)N1CCOCC1)c1ccccc1,4.7
C/C(=N\NC(=S)NC1CCCCC1)c1ccc(C#N)cc1,25.4
Cc1ccc(O)c(NC(=O)c2noc(C(C)C)c2[N+](=O)[O-])c1,6.6
CCOc1ccc(/C(CCC(=O)O)=N/NC(=S)NC(C)C)cc1,17.9
COc1ccc(Cc2c(N)nc(C)nc2N)cc1,13.3
CN1/C(=C\C=C2/SC(=S)N(CC(=O)O)C2=O)C(C)(C)c2ccccc21,-5.5
O=C1CC(c2cccc(Br)c2)C2=C(COC2=O)N1 (configuration not stated),15.3
O=C(Cn1c(CO)nc2ccccc21)Nc1ccccc1Cl,5.4
COc1cc(C2c3[nH]c4ccccc4c3CCN2Cc2cn(C)nc2C)ccc1F (configuration not stated),7.4

# Grouped by structure: the compounds so far containing a tert-butyl group (three)
SMILES,Biofilm kill mix
COc1ccc(-c2cc(C(=O)OCC(=O)NC(C)(C)C)c3ccccc3n2)cc1,12.3
CC(C)(C)S(=O)(=O)c1cnc(N2CCCC2)nc1N,3.6
CCOC(=O)c1cc(C(C)(C)C)n(CCCN2CCOCC2)c1C,14.2

# Other records
compound | Biofilm kill mix
N#C/C(=C/c1ccccc1[N+](=O)[O-])c1nnc2n1CCCCC2 | 5.2
COc1ccccc1Nc1nnc(SCC(=O)NC(=O)Nc2ccc3c(c2)OCCO3)s1 | 10.6
O=C(CCn1nc(-c2ccc(Cl)cc2)c2ccccc2c1=O)NN1CCOCC1 | 18.3
CCOc1ccc2nc(/N=C/c3nc(-c4ccc(Br)cc4)oc3O)sc2c1 | 6.4
Cc1ccc(C(=O)Nc2ccc(N3CCOCC3)nc2N2CCOCC2)cc1 | 26.5
Cc1cccc(C)c1-n1cccc1/C=C1\SC(=S)N(c2cccc(C(=O)O)c2)C1=O | 15.4
O=[N+]([O-])C(/C=C(\Cl)[N+](=O)[O-])=C(N1CCCCC1)N1CCCCC1 | -3.6
CN(C)S(=O)(=O)c1cccc(NC(=O)CSc2nncn2-c2ccccc2)c1 | -6.8
CCc1cc2c(=O)n(Cc3ccccc3)c(SC3CCOC3=O)nc2s1 (configuration not stated) | 12.3
Cc1ccc(SCC(=O)NCc2ccc(F)cc2)cc1 | 2.9
CCCc1nc(SC)[nH]c(=O)c1C | 17.5
CCN(CC)S(=O)(=O)c1cccc(NC(=O)COC(=O)/C=C/c2cccs2)c1 | 0.3
Cc1ccccc1NC(=O)CN1C(=O)N/C(=C\c2ccc(N3CCOCC3)c(F)c2)C1=O | 47.3
CCc1nnc(NC(=O)c2ccc(-c3ccc([N+](=O)[O-])cc3Cl)o2)s1 | 15.6
Fc1ccc(-c2nc3c(-c4ccccc4)cnn3cc2CCN2CCOCC2)cc1 | -4.8
CCc1cccc(NC(=O)CCCSc2nc3ccccc3[nH]2)c1 | -5.3
O=C(Nc1cccs1)Nc1ccccc1Br | 13.5
C(=N\Nc1nc(N2CCCC2)nc(N2CCCC2)n1)/c1ccncc1 | 16.7
CCOP(=O)(OCC)c1nc(-c2ccccc2)oc1NCc1ccccc1 | 8.0
CCN(CC)CCN(C(=O)c1ccc(S(=O)(=O)N2CCCCC2)cc1)c1nc2cc3c(cc2s1)OCO3 | 6.1
OCc1cn(-c2ccc(Cl)cc2)nn1 | 13.0
Cc1nc2ccccc2c(=O)n1NC(=O)/C=C/c1ccccc1Cl | 9.6
O=C(O)c1cccc(N2C(=O)c3cccc(Oc4ccc(Cl)cc4)c3C2=O)c1 | 20.2
CCCC(=O)n1nc(-c2ccccc2)nc1N | 2.3
COC(=O)c1ccc(C(=O)OC)c(-n2c(=O)c3ccccc3c3ccccc3c2=O)c1 | 12.6
Cc1ccc(C2CC(c3cccc(NS(C)(=O)=O)c3)=NN2S(C)(=O)=O)cc1 (configuration not stated) | 16.0
CSCCC(NC(=O)c1ccc([N+](=O)[O-])cc1Cl)C(=O)OCC(=O)N(C)C (configuration not stated) | 21.8
CC(C)(C)C(=O)C(Cl)C(=O)Nc1ccccc1 (configuration not stated) | 4.4
COc1cc(/C=C2/SC(=S)N(CC(=O)Nc3cccnc3)C2=O)cc(OC)c1OC | 4.5
COc1ccc(NC(=S)N2CCCC(c3nc4ccc(C)cc4[nH]3)C2)cc1 (configuration not stated) | 18.7
O=C(Cc1csc(-c2ccccc2)n1)Nc1ccc(C(F)(F)F)cc1 | 18.6
Cc1ccc(C(=O)COC(=O)c2cnccn2)cc1[N+](=O)[O-] | -9.9
S=C(Nc1ccc2c(c1)OCO2)N1CCCC1 | 10.5
Cc1nc2sc(-c3ccccc3)cc2c(=O)n1N | 8.7
COCc1cc(=O)[nH]c(SCCS(=O)(=O)c2ccc(Cl)cc2Cl)n1 | 29.1
Clc1ccc(OCCCCCN2CCCC2)c(Br)c1 | 11.0
C=CCN1C(=O)N(c2ccc(F)cc2)C(=O)C1CC(=O)Nc1ccc(Cl)cc1 (configuration not stated) | 17.4
O=C(N/N=C\c1ccc(OC(=O)c2cccs2)cc1)c1ccc(Cl)cc1 | 8.6
CCOc1ccccc1N1CCN(C(=O)CCCN2C(=O)c3cccc4cccc(c34)C2=O)CC1 | 6.1
COc1ccc(CNC(=O)/C=C/c2ccc(S(=O)(=O)N3CCOCC3)cc2)cc1 | 11.8
Cc1nc2ccccc2nc1OCc1ccc([N+](=O)[O-])cc1 | 14.8
O=C(COC(=O)c1cc(Cl)cc(Cl)c1)NCCN1C(=O)CSC1=O | 17.1
CC(=O)n1nc(-c2ccccc2)nc1NCc1cccs1 | 10.6
CCNC(=O)C(=O)c1c(-c2ccccc2)[nH]c2ccccc12 | 8.9
CN(C)CCn1nnc2c(=O)oc3ccccc3c21 | 27.3
Cc1[nH]c2ccccc2c1/C=N/NC(=O)c1cc(-c2cccs2)[nH]n1 | 8.8
Cc1cccc(OCC(=O)Nc2nonc2NC(=O)COc2cccc(C)c2)c1 | -4.7
Cc1nc2c(C)cccc2cc1C(=O)N/N=C/c1ccc(C(=O)O)cc1 | 20.5
CCOC(=O)N/N=C/c1cn(Cc2ccc(Cl)cc2)c2ccccc12 | 15.2
Cc1cc(C)cc(NC(=S)NCCCN2CCOCC2)c1 | 11.1
CC(C)=CCN1CCN(Cc2c(C)nn(C)c2Cl)CC1CCO (configuration not stated) | 18.7
Cc1ccc(-n2c(C)nnc2SCC(=O)NNC(=O)c2ccco2)cc1 | 11.4
N#C/C(=C(/O)Cc1ccccc1)P(=O)(c1ccccc1)c1ccccc1 | 20.4
O=C(N/N=C/c1ccncc1)c1cccc(N/N=C/c2ccncc2)c1 | 18.7
Cc1ccc(SCCc2ccc(C)nc2)cc1 | 10.7
O=C(Nn1c(-c2ccncc2)nc2ccccc2c1=O)c1ccc([N+](=O)[O-])cc1Cl | 12.7
Cc1cc(C(=O)NCc2nc(-c3ccccc3)no2)ccc1[N+](=O)[O-] | 10.3
O=C1CCCC2=C1C(c1cccs1)CC(=O)N2c1ccc(F)cc1 (configuration not stated) | -1.4
O=C(c1cc2cc([N+](=O)[O-])ccc2s1)N1CCOCC1 | 7.5
O=C(COc1cccnc1[N+](=O)[O-])NCc1ccco1 | 11.1

# More records
compound | Biofilm kill mix
COc1ccc(-c2nc3ccccc3s2)cc1 | 10.8
COc1c(C)cc(C(=O)C2CCCN(Cc3cccc4nccnc34)C2)cc1C (configuration not stated) | -12.9
CC(C)C(O)C1CCN(Cc2nc(Cc3ccccc3Cl)no2)CC1 (configuration not stated) | 13.9
O=C(CSc1cccc[n+]1[O-])CSc1cccc[n+]1[O-] | 0.2
C/C(CC(=O)Nc1cc(Cl)ccc1C)=N\NC(N)=O | 21.6

# Only part of the results is shown; the hit share may differ from the screen's.
